CSC inhib: blocks cancer stem cells; 300,000 compounds, 1.1% hits; inhibition, % at 7.5 µM; cancer stem cell-like cells viability, luminescence;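 active = mean at 75% or more and at least half the replicates too; inconclusive = mean and replicates disagree; tested in HMLE shEcad cells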;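 also: 0% = median of negative and 100% = median of positive control wells; the first replicate is given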
MT1-MMP act inh: MT1-MMP (human) activation inhibition; P50281; HT1080 RFP-PRO-GFP cells, GFP/RFP ratio fluorescence, overnight; percent of plate control window, DMSO zero; GFP/RFP ratio change, % at 20 µM; 360,000 compounds, 0.061% hits;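 active = GFP/RFP ratio change of at least 30% with cell ATP level not reduced by more than half and red fluorescence within 50% of control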; also: strong numbers were not always called active
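Compound: 20 µM single dose, 1% DMSO / System: HT1080 RFP-PRO-GFP cells / Controls: DMSO and RFP-L50D-GFP cell wells / Read-out basis: GFP/RFP fluorescence ratio / Schedule: overnight compound exposure at 37 °C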
Env fusion inh: blocks HIV Env-driven cell-cell fusion | 360,000 compounds, 1.1% hits | HeLa-JRFL Env/CEM21 cell fusion, luciferase | inhibition, % at 12.3 µM | AID 651610;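 active = mean replicate inhibition score of at least 50 and every replicate individually at or above 50; inconclusive = only one of the two criteria met; inactive = mean below 50 and not all replicates reaching 50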;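 also: 0% = plate neutral controls and 100% = maraviroc near 300 nM; one replicate is shown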
PABP polyA inh: blocks human PABP binding to poly(A) RNA | P11940 | fluorescence polarization | inhibition, % at 35 µM | 290,000 compounds, 1% hits | AID 2014;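 active = 50% or more with normal probe brightness, or confirmed in later tests; inconclusive = above 50% with abnormal brightness, or retests that disagree; inactive = below 50% or failed in later tests; about a fifth of its hits are not listed in these tables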;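 also: calls also rest on retests at 20 µM and on dose response follow-up; controls were probe without protein and protein plus probe with vehicle; some compounds called inactive have numbers as strong as hits; many hits fall short of the cut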
Target sequence (P11940 whole entry, looked up): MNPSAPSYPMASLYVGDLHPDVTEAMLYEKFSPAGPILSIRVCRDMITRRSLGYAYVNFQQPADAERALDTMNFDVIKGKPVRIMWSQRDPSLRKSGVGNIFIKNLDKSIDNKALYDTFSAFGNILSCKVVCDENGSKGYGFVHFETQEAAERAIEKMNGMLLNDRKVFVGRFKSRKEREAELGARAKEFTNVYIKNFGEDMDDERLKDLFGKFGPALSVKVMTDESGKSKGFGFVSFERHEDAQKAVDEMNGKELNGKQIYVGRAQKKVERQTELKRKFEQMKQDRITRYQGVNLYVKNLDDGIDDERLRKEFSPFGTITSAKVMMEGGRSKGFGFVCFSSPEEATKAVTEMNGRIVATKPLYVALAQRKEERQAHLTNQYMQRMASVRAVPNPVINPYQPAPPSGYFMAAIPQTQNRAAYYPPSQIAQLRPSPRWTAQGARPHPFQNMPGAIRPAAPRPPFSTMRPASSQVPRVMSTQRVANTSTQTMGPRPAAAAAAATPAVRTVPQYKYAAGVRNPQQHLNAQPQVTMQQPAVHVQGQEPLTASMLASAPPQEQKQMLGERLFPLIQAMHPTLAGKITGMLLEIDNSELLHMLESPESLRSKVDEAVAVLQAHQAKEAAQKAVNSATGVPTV
eIF4H FP inh: inhibitors of RNA binding by human eIF4H; eIF4H fluorescence polarization binding assay; inhibition, % at 35 µM; 290,000 compounds, 0.94% hits; AID 2012;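 active = 50% or more with normal probe brightness, or confirmed in later tests; inconclusive = above 50% with abnormal brightness, or retests that disagree; inactive = below 50% or failed in later tests; about a fifth of its hits are not listed in these tables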;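 also: calls also rest on retests at 20 µM and on dose response follow-up; 0% = protein and probe with vehicle and 100% = probe without protein; strong numbers were not always called active; many hits fall short of the cut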
UUG fidelity: modulators of start codon recognition fidelity in yeast | S. cerevisiae UUG-firefly luciferase reporter, luminescence/redox ratio | activity score, % at 18.7 µM | 350,000 compounds, 0.13% hits;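 active = replicate mean at a twofold rise or more, about +100% in these data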;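 also: firefly luciferase made from a UUG start codon reports start codon fidelity; reporter light over untreated wells divided by growth signal over untreated wells; some hits fall short of that in this replicate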
Rce1 inh: yeast Ras-converting enzyme inhibition | Q03530 | yeast membranes, quenched prenylated peptide cleavage fluorescence | calls only | 290,000 compounds, 0.27% hits | AID 2563;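 active = fall in fluorescence gain of 50% or more versus controls, with final raw signal at or below 3038400; inconclusive = same 50% fall but final raw signal above 3038400; inactive = fall in fluorescence gain under 50%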;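 also: plate controls were neutral control wells for no effect and wells lacking membranes for full effect; tested at 10 µM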
PABP polyA inh retest: further read-out of PABP polyA inh, marked with its call; inhibition, %; compound at 20 µM; confirmation repeats;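 mean of two retest wells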
MT1-MMP act inh RFP: recorded beside MT1-MMP act inh, whose call it bears; RFP signal change, %; measured here: RFP expression control read;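 0 = vehicle wells; hits needed this value within 50% of zero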
The depositor's hits bear a star; i = inactive; ? = inconclusive; · = no result given. No enrichment for hits, and some 2.9% of all compounds hit somewhere here.

SMILES | CSC inhib | MT1-MMP act inh | MT1-MMP act inh RFP | Env fusion inh | PABP polyA inh | eIF4H FP inh | UUG fidelity | Rce1 inh | others
Cc1ccc2c(c1)c(-c1ccccc1)nc1nnnn12 | -36 | 0 | 2 | -4 | 1 | -7 | -14 | i
CC1CN(CCCCSc2ccccc2)CC(C)O1 (stereo unspecified) | 4 | -5 | 2 | 27 | 10 | -10 | -7 | i
CN1C(=O)N(C)C2(c3ccccc3)N(C)C(=O)NC12c1ccccc1 (stereo unspecified) | 6 | -1 | 1 | -4 | 0 | 6 | -4 | i
CC(=O)Nc1ccc(-c2csc(NCCc3ccccc3)n2)cc1 | 12 | 6 | -6 | -35 | 5 | -11 | -3 | i
COCC(=O)Nc1nc2n(n1)C(c1ccc(OC)cc1)CC(c1ccc(OC)cc1)N2 (stereo unspecified) | · | 2 | 1 | -4 | -10 | -1 | -10 | i
Cc1ccc([N+](=O)[O-])cc1N1C(=O)CS/C1=N\NC(=O)c1cccnc1 | 3 | 0 | 1 | 1 | -28 | -4 | · | i
COc1ccc(-n2c(C)nc3c(cnn3-c3ccc(C)cc3)c2=O)cc1 | -5 | -1 | -15 | 31 | 18 | 5 | · | ·
COc1ccc(C(=O)O)cc1S(=O)(=O)NCc1ccccn1 | -5 | 2 | 3 | -3 | 6 | 11 | -8 | i
Cn1cc(-c2ccccc2C(N)=O)c(=O)c2ccccc21 | 4 | 5 | 1 | -6 | 9 | 11 | 17 | i
O=S(=O)(Nc1ccc(Cl)cc1)c1ccc2c(c1)CCO2 | -14 | 2 | -2 | 16 | -6 | -2 | -9 | i
CC1CN(S(=O)(=O)c2ccc(Cl)c(C(F)(F)F)c2)CC(C)O1 (stereo unspecified) | 0 | 1 | -3 | · | -4 | 0 | · | i
CC(OC(=O)c1ccc(C(C)(C)C)cc1)C(=O)NC1CCCCC1C (stereo unspecified) | 10 | 1 | -4 | -2 | -2 | -8 | -25 | i
O=C(c1cccn2c(=O)c3cc4ccccc4cc3nc12)N1CCN(c2ccccc2)CC1 | -3 | · | · | · | 15 | 13 | · | i
Cc1c(NS(=O)(=O)c2cccs2)c(=O)n(-c2ccccc2)n1C | 0 | 4 | 3 | · | -7 | -5 | -4 | i
CC(NC(=O)c1cccc(S(=O)(=O)N2CCN(Cc3ccccc3)CC2)c1)c1ccccc1Cl (stereo unspecified) | · | -2 | -6 | 12 | · | · | -7 | ·
CCOC(=O)N1CCC(NS(=O)(=O)c2ccc3c(c2)OCC(=O)N3)CC1 | 1 | 4 | 5 | -20 | -1 | 9 | 0 | i
Cc1cc(C)cc(Nc2c3c(nc4ncnn24)CCC3)c1 | 5 | 1 | -1 | 42 | 4 | -4 | · | i
COc1ccc(CNC(=O)c2ccc(CS(=O)(=O)c3ccc(C)cc3)o2)cc1 | -1 | 4 | 0 | -1 | -2 | 8 | 7 | i
Cn1c2c(sc1=O)CCC2 | · | -1 | 3 | 1 | · | · | -3 | ·
OCCN1CCN(c2nc3ccccc3nc2-c2ccccc2)CC1 | 8 | -2 | 0 | 24 | -4 | 22 | · | i
CC1C(=O)Nc2ccc(S(=O)(=O)N3CCN(c4ccccc4F)CC3)cc2NC1=O (stereo unspecified) | -5 | -2 | -5 | -21 | 12 | 3 | · | i
Cc1cccc(C(=O)NCC(=O)OCC(=O)c2ccc(Br)s2)c1 | 3 | -2 | 1 | · | · | · | -13 | ·
COc1ccc(CNC(=O)c2ccc(NS(=O)(=O)c3c(C)noc3C)cc2)cc1 | 3 | -1 | -2 | -132 | 1 | 1 | 2 | i
CC(C)(C)C(=O)Nc1nc(C2CCCN2S(=O)(=O)c2ccc(Cl)cc2)cs1 (stereo unspecified) | -6 | -9 | -18 | · | -2 | -3 | · | i
CC(=O)Nc1nc2c(C)cc(NC(=O)C3CCCCC3)cc2s1 | · | 3 | -2 | -21 | 11 | 6 | -14 | i
(listing goes on)
SMILES | CSC inhib | MT1-MMP act inh | MT1-MMP act inh RFP | Env fusion inh | PABP polyA inh | eIF4H FP inh | UUG fidelity | Rce1 inh | others
O=C1C(Cl)=C(N2CCN(Cc3ccccc3)CC2)C(=O)N1c1ccccc1 | 13 | -6 | 0 | · | 66* | ? | -4 | i | PABP polyA inh retest=124*
Cc1cccc2c(C(=O)N3CCN(c4ccccc4)CC3)cc(-c3ccncc3)nc12 | 58 | 1 | -12 | -16 | 5 | -9 | -16 | i
CC1CCN(C(=O)COC(=O)c2n[nH]c(=O)c3ccccc23)CC1 | -2 | -5 | 0 | · | · | · | -23 | ·
CCOC(=O)COn1c(=O)c(-c2ccccc2)[n+]([O-])c2ccccc21 | 1 | -2 | -1 | -10 | 0 | 0 | -18 | i
CC(=O)c1ccc(NC(=O)COC(=O)c2ccccc2Sc2ccccc2C#N)cc1 | 3 | 3 | -1 | -11 | -22 | -14 | · | i
COc1ccc(C(=O)N2CCC2(C)C(=O)O)cc1C(F)(F)F (stereo unspecified) | · | -1 | 1 | -3 | · | · | -3 | ·
COCOc1cccc(CN2CCC(C)(Oc3cccc(OC)c3)C2)c1 (stereo unspecified) | · | -1 | 1 | 10 | · | · | -7 | ·
Cc1cc(C)c(OCCCNCc2ccccc2)c(Br)c1 | 25 | -3 | 1 | 28 | 3 | 11 | -25 | i
CC(C)n1c(=O)c2ccccc2n1Cc1cn(Cc2cccs2)nn1 | · | 1 | -1 | 17 | · | · | -4 | ·
COCCCNC(=S)NC1CC2CCCC(C1)N2Cc1cccs1 (stereo unspecified) | · | 1 | 5 | -35 | 1 | 4 | -8 | i
COc1ccc(C2NC(=O)C(C#N)=C(S)N2c2ccccc2)cc1OC (stereo unspecified) | 16 | 2 | 3 | 0 | 7 | -1 | · | i
CCOC(=O)C1C(=O)CC(C)(O)C(C(=O)OCC)C1c1ccc(SC)cc1 (stereo unspecified) | 8 | · | · | 13 | -80 | -6 | 7 | i
Cc1nc(CSc2nnc3scc(-c4ccccc4)n23)cs1 | · | -8 | -1 | -6 | 7 | -8 | -24 | i
CCOC(=O)c1cc(C#N)c(Nc2ccc(C)cc2)nc1C(F)(F)F | -3 | 0 | -2 | -262 | 10 | -9 | -7 | i
COc1ccc2nc(-c3ccccc3)cc(OC)c2c1 | 12 | 6 | -1 | · | -1 | -11 | · | i
NC(=O)C1(N2CCCCC2)CCN(C(=S)Nc2ccc(F)cc2)CC1 | 7 | 5 | -2 | -8 | -12 | 0 | -10 | i
CCOC(=O)c1c(NC(=O)c2ccoc2C)sc2c1CCC2 | 0 | 0 | 0 | -18 | 2 | 14 | -15 | ·
C[C@@H]1CC[C@@]2(O[C@@H](CCO)C[C@@H](O)[C@@H]2O)O1 | 2 | 3 | 0 | 4 | · | · | -5 | i
CC(C)CN(C(=O)CSc1nc2ccccc2[nH]1)C1CCS(=O)(=O)C1 (stereo unspecified) | 33 | 6 | 4 | -2 | · | · | -18 | ·
Cc1ccccc1OCCC(=O)Nc1cc(S(=O)(=O)N2CCOCC2)ccc1OC(C)C | -2 | -2 | 0 | 12 | 12 | -7 | 5 | i
CC1C(=O)N2CCCc3cc(NS(=O)(=O)c4ccc(F)cc4)cc1c32 (stereo unspecified) | 10 | 3 | -2 | 9 | · | · | -14 | i
COc1ccc(-c2cccc(-c3cc(=O)oc4cc(OC)cc(OC)c34)c2)cc1 | · | 9 | -6 | -29 | · | · | -11 | ·
COC(=O)N/N=C/c1ccc(-c2cc(Cl)cc(Cl)c2)o1 | 1 | 1 | 2 | -44 | 3 | -5 | -4 | i
CCC(C)(C)n1nnnc1CN1CCC(O)(c2cccc(C(F)(F)F)c2)CC1 | -7 | 2 | -3 | · | · | · | -2 | i
COc1ccc(CCNS(=O)(=O)c2ccc3c(c2)oc(=O)n3C)cc1OC | -2 | -4 | 4 | -58 | -5 | -4 | 13 | i

An excerpt from above in order of SMILES length, descending:
SMILES | CSC inhib | MT1-MMP act inh | MT1-MMP act inh RFP | Env fusion inh | PABP polyA inh | eIF4H FP inh | UUG fidelity | Rce1 inh | others
Cc1ccccc1OCCC(=O)Nc1cc(S(=O)(=O)N2CCOCC2)ccc1OC(C)C | -2 | -2 | 0 | 12 | 12 | -7 | 5 | i
CCOC(=O)c1c(NC(=O)c2ccoc2C)sc2c1CCC2 | 0 | 0 | 0 | -18 | 2 | 14 | -15 | ·
Cc1cc(C)c(OCCCNCc2ccccc2)c(Br)c1 | 25 | -3 | 1 | 28 | 3 | 11 | -25 | i

Additional compounds follow.
SMILES | CSC inhib | MT1-MMP act inh | MT1-MMP act inh RFP | Env fusion inh | PABP polyA inh | eIF4H FP inh | UUG fidelity | Rce1 inh | others
O=C(O)CSCC(=O)N1CCCN(c2nc3ccc(Cl)cc3s2)CC1 | -6 | -1 | 1 | 7 | 17 | 10 | · | i
CCOC(=O)c1c(CN(CC)CC)n(-c2ccccc2)c2ccc(O)cc12 | -4 | 0 | -2 | 16 | 0 | -4 | · | i
CC(C)C(=O)Nc1oc(-c2ccccc2)cc1C#N | · | -1 | -2 | -7 | -10 | -1 | · | i
Cn1cccc1C(=O)NC(=O)COC(=O)CCNS(=O)(=O)c1ccc(Cl)cc1 | 10 | 2 | -1 | · | · | · | 7 | ·
CCn1c(C)nc2c(C)[n+](CC(=O)c3ccc(Br)cc3)ccc21 | -1 | 0 | -3 | -12 | 4 | -6 | · | ·
CC(C)On1c(SCC(=O)N(C)C)nc2ccccc2c1=O | -2 | · | · | · | 7 | 1 | · | i
CCC(=O)Nc1ccc(/C(C)=N\NC(=O)c2ccc(OC)cc2)cc1 | -10 | 5 | 8 | -9 | -8 | -1 | -16 | i

Among those listed so far, these have an aryl methoxy group:
SMILES | CSC inhib | MT1-MMP act inh | MT1-MMP act inh RFP | Env fusion inh | PABP polyA inh | eIF4H FP inh | UUG fidelity | Rce1 inh | others
COCC(=O)Nc1nc2n(n1)C(c1ccc(OC)cc1)CC(c1ccc(OC)cc1)N2 (stereo unspecified) | · | 2 | 1 | -4 | -10 | -1 | -10 | i
COc1ccc(-n2c(C)nc3c(cnn3-c3ccc(C)cc3)c2=O)cc1 | -5 | -1 | -15 | 31 | 18 | 5 | · | ·
COc1ccc(C(=O)O)cc1S(=O)(=O)NCc1ccccn1 | -5 | 2 | 3 | -3 | 6 | 11 | -8 | i
COc1ccc(CNC(=O)c2ccc(CS(=O)(=O)c3ccc(C)cc3)o2)cc1 | -1 | 4 | 0 | -1 | -2 | 8 | 7 | i
COc1ccc(CNC(=O)c2ccc(NS(=O)(=O)c3c(C)noc3C)cc2)cc1 | 3 | -1 | -2 | -132 | 1 | 1 | 2 | i
COc1ccc(C(=O)N2CCC2(C)C(=O)O)cc1C(F)(F)F (stereo unspecified) | · | -1 | 1 | -3 | · | · | -3 | ·
COCOc1cccc(CN2CCC(C)(Oc3cccc(OC)c3)C2)c1 (stereo unspecified) | · | -1 | 1 | 10 | · | · | -7 | ·
COc1ccc(C2NC(=O)C(C#N)=C(S)N2c2ccccc2)cc1OC (stereo unspecified) | 16 | 2 | 3 | 0 | 7 | -1 | · | i
COc1ccc2nc(-c3ccccc3)cc(OC)c2c1 | 12 | 6 | -1 | · | -1 | -11 | · | i
COc1ccc(-c2cccc(-c3cc(=O)oc4cc(OC)cc(OC)c34)c2)cc1 | · | 9 | -6 | -29 | · | · | -11 | ·
COc1ccc(CCNS(=O)(=O)c2ccc3c(c2)oc(=O)n3C)cc1OC | -2 | -4 | 4 | -58 | -5 | -4 | 13 | i
CCC(=O)Nc1ccc(/C(C)=N\NC(=O)c2ccc(OC)cc2)cc1 | -10 | 5 | 8 | -9 | -8 | -1 | -16 | i
